MLL AF4-AF9 inh – inhibitors of AF4 peptide binding to AF9, primary screen, biochemical, AlphaScreen, biotin-AF4 peptide, FLAG-AF9, single point. Protein AF-9 (Homo sapiens), P42568. inhibition, % at 10 µM. 0.47% of 350,000 active. AID 651704, 2012;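 active = every replicate reaching a set inhibition limit, whatever the replicate mean, cut at about 25% in these data; inconclusive = mean inhibition reaches that limit but some replicates miss it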;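 note: 0% = plate neutral control median and 100% = total signal loss; the record names both 10 and 1 µM as test concentration; the first replicate is given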
Ecoli growth – E. coli growth inhibition, primary screen, OD600; AID 1053175, 2014; OD600 absorbance (concentration not given with the values); 0.21% of 330,000 active; Escherichia coli growth, 23 h; stronger effect = lower value;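 active = OD600 absorbance below the run mean of sample wells minus 3.6 SD, in any replicate, cut at about 0.56 in these data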;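 note: stock transfer was 300 nL into about 60 µL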
HNF4A DNA FP – change in binding of human HNF4A to DNA, primary screen, biochemical, fluorescence polarization, FITC-DNA; Hepatocyte nuclear factor 4-alpha (Homo sapiens), P41235; 1 h; activity change, % at 10 µM; 0.3% of 360,000 active; in the data active = activity change above about 30%, passing the limit was not always enough;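 note: controls were the assay level and a saturating level of protein; the project sought stronger binding though the title names inhibitors; some compounds called inactive have numbers as strong as hits; positive values seem to mean higher polarization but the record does not say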
Target sequence (P41235 whole entry, looked up): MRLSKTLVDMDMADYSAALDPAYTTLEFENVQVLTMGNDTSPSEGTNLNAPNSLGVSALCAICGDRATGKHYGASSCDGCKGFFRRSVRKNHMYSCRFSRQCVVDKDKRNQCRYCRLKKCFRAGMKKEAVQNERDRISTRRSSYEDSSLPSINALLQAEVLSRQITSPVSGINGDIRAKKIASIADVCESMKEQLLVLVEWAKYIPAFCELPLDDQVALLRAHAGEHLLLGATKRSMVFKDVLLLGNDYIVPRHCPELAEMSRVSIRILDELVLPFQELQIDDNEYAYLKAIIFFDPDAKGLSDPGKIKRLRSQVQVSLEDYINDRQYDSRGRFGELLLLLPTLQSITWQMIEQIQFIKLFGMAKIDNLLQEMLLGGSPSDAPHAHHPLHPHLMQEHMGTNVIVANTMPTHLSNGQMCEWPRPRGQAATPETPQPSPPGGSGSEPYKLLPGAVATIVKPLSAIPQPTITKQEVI
Vif TR-FRET – inhibitors of Vif binding to APOBEC3G peptide, primary screen, biochemical, TR-FRET, GST-Vif 1-94, biotin-A3G peptide, dose response retest (AID 1117319) | TR-FRET GST-Vif / biotin-A3G peptide binding; higher % means a stronger effect; test concentration not given here; strong numbers were not always called active | inhibition, %; hits with a dose series show IC50 in µM | 0.57% of 260,000 active;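 active = above the screen mean plus three standard deviations and confirmed in dose response; inconclusive = results disagree or hit not tested in dose response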;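 note: Vif residues 1-94 fused to GST binding biotinylated APOBEC3G peptide 110-148; 0% = full assay without inhibitor and 100% = GST in place of GST-Vif; retest series ran down from 100 µM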
FGF22 binding – binders of human FGF22 protein, primary screen, FGF22 synaptogenesis inhibitor project, biophysical, thermal shift, single point; calls only at 9.99 µM; recombinant FGF22 thermal shift, SYPRO orange fluorescence; percent of sucrose octasulfate shift, DMSO zero; 1.5% of 340,000 active;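 active = melting point raised past a set limit in the mean and every replicate; inconclusive = no clear call; three in four hits are not shown here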
Target sequence (Q9HCT0 whole entry, looked up): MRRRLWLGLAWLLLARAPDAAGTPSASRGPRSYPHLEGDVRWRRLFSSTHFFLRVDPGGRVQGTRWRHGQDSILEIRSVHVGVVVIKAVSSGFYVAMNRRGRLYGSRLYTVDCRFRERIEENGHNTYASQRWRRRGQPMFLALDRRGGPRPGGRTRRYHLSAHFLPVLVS
ALR inh – inhibitors of human ALR sulfhydryl oxidase, primary screen, biochemical, H2O2 detection, HRP-luminol luminescence, single point; inhibition, % (no concentration beside the values); AID 485317, 2010; 3.8% of 290,000 active; purified ALR, DTT oxidation; FAD-linked sulfhydryl oxidase ALR (Homo sapiens), P55789;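 active = mean and each replicate at 75% or more; inconclusive = only one of the two met; inactive = neither met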;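 note: stock transfer was 7.5 nL into about 7.5 µL; 0% = neutral wells and 100% = wells with inactivated enzyme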
Target sequence (P55789 whole entry, looked up): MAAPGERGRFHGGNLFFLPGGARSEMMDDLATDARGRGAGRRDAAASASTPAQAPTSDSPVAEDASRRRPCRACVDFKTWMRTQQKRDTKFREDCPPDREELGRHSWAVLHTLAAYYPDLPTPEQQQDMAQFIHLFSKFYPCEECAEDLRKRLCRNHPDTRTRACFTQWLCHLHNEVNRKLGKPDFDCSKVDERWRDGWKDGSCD
Ecoli rRNA inh – reduced GFP signal of wild-type E. coli, primary screen, bacterial rRNA inhibitor project, GFP/RFP fluorescence, OD600, single point. 1.6% of 350,000 active. E. coli WT GFP vs humanized-ribosome RFP mutants, 24 h; stronger effect = lower value; DMSO median 0, no signal -100. GFP signal change (wild-type ribosome), % (test concentration not listed);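 active = significant combined selectivity score with lowered wild-type GFP, culture density cut under 30%, mutant RFP and density less affected; inactive = any of these conditions unmet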; note: one replicate is shown; some compounds called inactive have numbers as strong as hits
Ecoli rRNA inh OD600 – second read-out of Ecoli rRNA inh, no call of its own (marks repeat the call); OD600 change, %; measured here: OD600 growth;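 optical density of the mix in the first replicate; 0 = DMSO median and -100 = no signal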
Ecoli rRNA inh RFP – second read-out of Ecoli rRNA inh, no call of its own (marks repeat the call); RFP signal change, %; measured here: RFP humanized mutant strains;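 first replicate; 0 = DMSO median and -100 = no signal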
The depositor's hits bear a star; i = inactive; ? = inconclusive; · = not tested or not shown; & = joins results of further samples. Only part of the results is shown; the hit share may differ from the screen's.

mol	MLL AF4-AF9 inh	Ecoli growth	HNF4A DNA FP	Vif TR-FRET	FGF22 binding	ALR inh	Ecoli rRNA inh	Ecoli rRNA inh OD600	Ecoli rRNA inh RFP
O=C(NC(=S)Nc1ccc(Br)cc1F)C1CCCCC1	-2.6	0.73	2.1	4%	i	-3	·	·	·
Nc1ccn([C@@H]2O[C@H](CNCc3ccc(C#CCCO)cc3)[C@@H](O)[C@H]2O)c(=O)n1	0.9	·	-1.6	8%	i	·	9	3	-0.3
CC1(C)CC2CC(C)(CN2c2ncnc3ccc(Br)cc23)C1 (centres undefined)	·	0.71	0.2	18%	·	2	·	·	·
COc1ccc2[nH]c(CN3CCN(C(C)C)C(CCO)C3)c(C)c2c1 (centres undefined)	2.7	0.69	3.7	-7%	i	-11	16	14	0.6
COCCN1C(=O)c2ccccc2C(C(=O)N2CCN(c3ccccc3)CC2)C1c1ccc(F)cc1 (centres undefined)	·	0.69	-4.8	-2%	·	23	·	·	·
CN(C)S(=O)(=O)c1ccc2c(c1)c(=O)c(C(=O)NCCCN1CCCCCC1)cn2C	3.2	0.69	-0.8	-4%&-15%	i	-17	14	9	1.0
Clc1cccc(N=C2NN=C(c3ccc4c(c3)OCCO4)CS2)c1	·	0.68	5.6	20%	·	-7	·	·	·
O=C(O)c1cccc(NC(=O)c2ccc3c(c2)C(=O)N(CC2CCCO2)C3=O)c1 (centres undefined)	·	0.72	2.9	2%	·	0	·	·	·
COc1cccc(/C(C)=N/Nc2ccc(S(=O)(=O)N3CCCCC3)cn2)c1	7.7	·	5.1	-5%	i	-2	-8	-21	-3.1
CCN(C(=O)COC(=O)c1ccco1)c1cccc2ccccc12	-0.1	0.66	1.5	·	i	-6	-12	-19	-2.9
CC(=O)Nc1ccc(NC(=O)C2Cc3c(-c4ccc(Cl)cc4)ccnc3O2)cc1 (centres undefined)	0.3	·	2.3	·	i	·	-4	-10	0.3
C=CCn1cc(CN2CCC(C(=O)Nc3cccc(-c4cccc(F)c4)c3)CC2)c(C)n1	7.5	0.69	1.6	-4%	i	-12	2	-9	4.2
CCCc1cn(CC[C@H]2CC[C@H](NS(=O)(=O)c3ccc(-c4ccccc4)cc3)[C@@H](CO)O2)nn1	-2.1	·	·	·	i	·	-14	-41	18
CCOCC(=O)Nc1nnc(C2CCCCC2)s1	·	0.74	-2.9	-9%	·	5	·	·	·
O=C(COC(=O)C1=COCCO1)Nc1ccccc1	-1.5	0.65	1.4	-10%	i	3	8	12	2.2
COc1ccc(CNC(=O)C[C@@H]2CC[C@H](NC(=O)c3cccc(F)c3)[C@H](CO)O2)cc1	0.5	·	·	·	i	·	-1	5	1.0
Cc1ccc(SCCNS(=O)(=O)c2ccc3c(c2)OCCO3)cc1	·	0.67	1.0	13%	·	0	·	·	·
O=C(NC(=S)Nc1ccccn1)c1cccc([N+](=O)[O-])c1	-3.2	0.66	0.7	-7%	i	11	5	14	-1.4
COC(=O)C[C@H]1C[C@H]2c3cc(NC(=O)NC4CCCCC4)ccc3O[C@H]2[C@H](CO)O1	-2.6	·	·	·	i	·	3	1	1.5
O=C(CSc1nc2ccc(Cl)cc2o1)NCc1ccc2c(c1)OCO2	·	0.68	1.3	1%	·	9	·	·	·
COc1ccccc1-c1cnc2c(c1)C(=O)N([C@@H](C)CO)C[C@@H](C)[C@H](CN(C)Cc1ccncc1)O2	-2.9	·	·	·	i	·	-2	3	0.8
CN1CCN(CC(=O)N2N=C(c3cccs3)CC2c2ccco2)CC1 (centres undefined)	15	0.68	1.1	-7%	i	-3	14	4	-3.8
CN1CCCc2nc(-c3ccccc3)ccc21	2.1	·	·	·	·	·	18	12	0.2
COc1ccc(OC)c(NC(=S)NCCN2CCOCC2)c1	-3.1	0.68	1.0	·	i	-8	7	9	-0.8
Oc1cc(NCCN2CCOCC2)cc2cccnc12	27*	0.64	-2.6	·	i	24	41	-14	-19
NC(=O)CC(NC(=O)Cc1ccc(Cl)cc1)c1ccc(NCCc2ccccc2F)c([N+](=O)[O-])c1 (centres undefined)	-2.5	0.67	6.4	·	i	-11	1	18	-4.8
CC1CCN(C(=O)Cn2nnc(-c3ccc([N+](=O)[O-])cc3)n2)CC1	4.7	0.73	5.0	·	i	-14	-5	-5	-0.5
CNC[C@@H]1Oc2ncc(C#CC3CCCCC3)cc2C(=O)N([C@H](C)CO)C[C@@H]1C	-2.3	·	·	·	i	·	3	0	4.0
CCS(=O)(=O)N1Cc2ccccc2CC1C(=O)Nc1ccc(C)cc1 (centres undefined)	·	0.72	0.3	7%	·	1	·	·	·
COc1ccc(S(=O)(=O)N(C)C[C@@H]2Oc3ccc(NS(=O)(=O)c4cccs4)cc3C(=O)N([C@@H](C)CO)C[C@@H]2C)cc1	-0.8	·	·	·	i	·	0	-3	3.6
CCCOc1ccc(/C=N/Nc2cc(N3CCOCC3)ncn2)c(O)c1	?	·	3.6	·	i	1	18	21	1.8
C[C@@H]1CN([C@@H](C)CO)C(=O)c2cccc(NC(=O)C3CC3)c2O[C@H]1CN(C)C	4.4	·	·	·	i	·	2	2	-0.5
O=C(c1ccc(COc2c(F)c(F)c(F)c(F)c2F)o1)N1CCOCC1	·	0.77	-2.1	14%	·	6	·	·	·
Cc1ccccc1C1(O)c2ccccc2-c2ccccc21	-8.7	·	-4.7	-2%	i	·	-58	-78	-21
COc1ccccc1S(=O)(=O)N[C@H]1C=C[C@@H](CC(=O)N2CCCCC2)O[C@H]1CO	-13	·	·	·	i	·	2	8	-1.6
COCCN1CCN(C(=O)C2CCC(=O)N(CCc3cccc(F)c3)C2)CC1 (centres undefined)	0.5	0.7	0.3	·	·	-12	14	20	1.9
Cc1ccc(NC(=O)CSc2nc(NS(=O)(=O)c3ccccc3)cc(=O)[nH]2)cc1	·	0.65	4.6	4%	·	98*	·	·	·
COc1ccc(/C=C/C(=O)Nc2ccc(C34CC5CC(CC(O)(C5)C3)C4)cc2)cc1OC	-2.5	0.73	0.8	·	i	-8	-3	-9	7.2
Cc1cccc(Nc2c([N+](=O)[O-])ccc3nonc23)c1	-0.4	0.7	2.6	·	i	-15	1	10	-2.1
O=C(NC(=S)NNC(=O)c1ccco1)c1ccc(Br)cc1	0.2	0.58	4.3	·	i	99*	-57	-80	-19

One compound at a time, as listed above.
`Cc1ccccc1C1(O)c2ccccc2-c2ccccc21` is entered as MLL AF4-AF9 inh = -8.7; Ecoli growth = ·; HNF4A DNA FP = -4.7; Vif TR-FRET = -2%; FGF22 binding = i; ALR inh = ·; Ecoli rRNA inh = -58; Ecoli rRNA inh OD600 = -78; Ecoli rRNA inh RFP = -21
`NC(=O)CC(NC(=O)Cc1ccc(Cl)cc1)c1ccc(NCCc2ccccc2F)c([N+](=O)[O-])c1` (centres undefined) is entered as MLL AF4-AF9 inh = -2.5; Ecoli growth = 0.67; HNF4A DNA FP = 6.4; Vif TR-FRET = ·; FGF22 binding = i; ALR inh = -11; Ecoli rRNA inh = 1; Ecoli rRNA inh OD600 = 18; Ecoli rRNA inh RFP = -4.8

Following part
mol	MLL AF4-AF9 inh	Ecoli growth	HNF4A DNA FP	Vif TR-FRET	FGF22 binding	ALR inh	Ecoli rRNA inh	Ecoli rRNA inh OD600	Ecoli rRNA inh RFP
C[C@H](C(=O)CC(=O)OC(C)(C)C)[C@H](O)c1ccccc1	-0.4	0.72	1.7	·	i	-6	22	23	9.8
CN1[C@H](C(=O)Nc2nccs2)[C@@H](CO)[C@@H]2Cn3c(ccc(/C=C/c4ccccc4)c3=O)[C@@H]21	-7.7	·	·	·	i	·	-3	2	3.2
O=C(c1cccc(Cl)c1)N1CCC2(CC1)NCCc1[nH]cnc12	0.1	0.72	-0.9	·	i	·	12	-2	3.8
CCN(CC)c1ncnc2c1ncn2[C@H]1CN(CCOC)C[C@@H](CO)O1	-3.5	·	1.5	·	i	·	12	7	1.0
CCn1c(C(=O)N2CCC(C(=O)NCCCSC3CCCCC3)CC2)cc2sccc21	4.8	0.68	1.7	-2%	i	-2	-33	-68	0.4
Cc1ccc(S(=O)(=O)N2CCCC2)cc1C(=O)NCc1ccccc1CN1CCCC1	-1.5	0.71	2.8	13%	i	-2	·	·	·
Cc1nn(-c2ccccc2)c2sc(C(=O)N(Cc3ccco3)C(C)C(=O)NC(C)(C)C)cc12 (centres undefined)	·	0.73	-5.0	1%	·	0	·	·	·
COc1cccc(CNC(=O)[C@@H]2CCCN2C(=O)[C@@H]2CCCN2C(=O)c2cccc3ccccc23)c1	1.9	·	0.1	·	i	·	-1	6	1.5
Nc1nc2ccccc2n1S(=O)(=O)c1ccc(Cl)cc1	0.0	·	1.2	·	i	·	-2	0	4.7
COc1ccccc1CCC(=O)Nc1cc(S(=O)(=O)N2CCCCC2)ccc1N1CCN(C)CC1	-42	0.72	0.0	-9%	i	-10	-1	-4	0.0
CC(=O)Nc1cccc(NS(=O)(=O)c2cccc3nsnc23)c1	·	0.76	-5.1	-3%	·	-14	·	·	·
CCc1ccc(NC(=O)CSc2nc3c(c(=O)n(C)c(=O)n3C)n2C)cc1	-2.0	0.69	6.9	·	i	45	3	2	0.4
COCC#Cc1cnc2c(c1)C(=O)N([C@H](C)CO)C[C@@H](C)[C@H](CN(C)C(=O)CCN1CCCCC1)O2	-4.5	·	·	·	i	·	6	12	-0.6
O=C(NC1CCCC1)C(c1ccccc1F)N(C(=O)c1ccco1)C1CCCC1 (centres undefined)	·	0.69	-1.8	1%	·	-4	·	·	·
CN(Cc1ccccn1)C(=O)c1cc(COc2ccc(F)c(F)c2)on1	-2.3	·	6.7	-1%	i	·	-6	-6	-0.7
CC1(C(=O)Nc2ccc3c(c2)OCCO3)CN(S(C)(=O)=O)CC(=O)N1Cc1cccc(C(F)(F)F)c1 (centres undefined)	·	·	0.6	·	i	·	1	-2	-0.2
COc1ccc(/C=C/C(=O)c2c(O)c(OC)c3occc3c2OC)cc1	3.4	0.71	1.5	·	i	·	4	-6	-1.8
COc1ccccc1N1CCN(C(=O)C2CCN(S(=O)(=O)c3ccc(C)cc3)CC2)CC1	1.2	0.67	-3.7	6%	·	7	-7	-13	2.3
CN(C)c1ccc(/C=C(\Cl)c2nc3ccccc3s2)cc1	·	0.72	46*	12%	·	11	·	·	·
CN1OC[C@@H]2CN[C@H](c3ccc(-c4cccc(F)c4)cc3)C[C@@H]21	-5.4	·	-3.0	-1%	i	·	·	·	·
COc1ccc2c3c(n(C)c2c1)[C@@H](CO)N(S(=O)(=O)c1ccccc1)CC31CCN(C)CC1	8.6	·	·	·	i	·	3	-2	-1.6
NS(=O)(=O)c1ccc(CNC(=O)c2ccccn2)cc1	-0.1	0.71	-0.6	·	i	-3	6	12	-4.5
C[C@@H]1CC=C[C@@H]2[C@H]1C(=O)N(Cc1ccccc1)[C@H]2c1ccccc1Br	1.6	0.69	4.1	5%	i	·	-15	-38	-2.8

Source: PubChem BioAssay
